# Sa growth inh = S. aureus growth inhibition; S. aureus RN4220 growth, OD600, 20 h, 42 °C; hits give low values; relative growth, % (test concentration not listed); 0.53% of 170,000 active;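 active = growth at 42 °C up to 50% and 20 or more points under that at 30 °C, or under 10% at both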;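 note: 300 nL library stock went into each well; scaled to the means of positive and negative controls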
# GIV Gai3 FP = blocks GIV peptide binding to rat Galpha-i3. P08753. Galpha-i3/FITC-GIV peptide fluorescence polarization, 90 min; hits give low values; scaled: aluminum fluoride 0%, vehicle 100%. percent of control (FP), % (concentration not given with the values). 0.42% of 210,000 active;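 active = replicate mean at 85% of control or lower, very high polarization wells dropped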;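 note: wells of about 15 µL received 100 nL stock; the first replicate is given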
# Target sequence (P08753 whole entry, looked up): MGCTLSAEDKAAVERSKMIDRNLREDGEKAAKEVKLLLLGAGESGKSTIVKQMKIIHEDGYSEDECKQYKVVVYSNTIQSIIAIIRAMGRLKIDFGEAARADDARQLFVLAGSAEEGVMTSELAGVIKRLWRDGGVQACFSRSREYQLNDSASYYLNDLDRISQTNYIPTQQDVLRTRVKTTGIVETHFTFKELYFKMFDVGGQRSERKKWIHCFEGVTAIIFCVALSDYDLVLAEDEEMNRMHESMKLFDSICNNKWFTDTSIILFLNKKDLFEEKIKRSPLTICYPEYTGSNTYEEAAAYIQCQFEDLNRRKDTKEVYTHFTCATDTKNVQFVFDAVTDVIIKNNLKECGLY
# HCMV UL50-53 inh = disrupts HCMV UL50-UL53 complex binding; HTRF UL50-UL53 interaction, normalized percent inhibition; inhibition, % (concentration not given with the values); 0.15% of 190,000 active; AID 1918969;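 active = both replicates at 50% or more, plus weaker picks with an unusually low signal ratio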;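 note: stock transfer was 100 nL into about 20 µL; 0% = negative control wells and 100% = wells with untagged competitor protein; inactives centre near -12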
# Sa growth inh second temp = recorded beside Sa growth inh, whose call it bears; relative growth, %; measured here: growth at 30 °C;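 optical density after 20 h as mean of two plates; 100% = untreated growth and lower means inhibition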
# * = called active by the depositor; . = not tested or not shown.
structure	Sa growth inh	Sa growth inh second temp	GIV Gai3 FP	HCMV UL50-53 inh
Cn1nc(-c2ccc(Cl)cc2)cc1NC(=O)CC(C)(C)CC(=O)O	139	85	108	-16
Cc1ccc(NC(=O)c2ccc3c(c2)CCO3)cc1	108	97	101	29
CCOc1ccc(-c2[nH]nc3nc(-c4cccc(F)c4)cc(C(=O)O)c23)cc1	.	.	102	-26
COc1ccc(-c2nn3c(Cc4ccc(Cl)cc4)nnc3s2)cc1OC	94	79	105	-29
Cc1onc(-c2ccccc2Cl)c1C(=O)ONC1=NCCCC1	101	86	107	-1
CC(C)c1ccc(NC(=O)Cn2c(-n3ncc(N4CCOCC4)c(Cl)c3=O)nc3ccccc32)cc1	101	95	.	-9
O=C(NCC(=O)N1CCCc2ccccc21)C1CCCCC1	103	98	.	-14
CC(=O)Nc1cc2cc(NC(=O)c3c(F)cccc3F)ccc2oc1=O	101	84	100	.
O=C(Nc1nnc(C2CC2)s1)C1CC1	89	75	102	-6
Cc1c(C#N)c(Sc2ccccc2NC(=O)c2ccco2)nc2ccccc12	106	91	103	-7
CC(C(=O)O)N1C(=O)CSC1=O (stereo unspecified)	105	96	98	-14
CCC(C)Oc1c(Cl)cc(C#N)cc1OC (stereo unspecified)	102	108	108	-8
CCOc1ccc2nc(N3CCC(C(=O)Nc4ccc(Cl)cc4)CC3)sc2c1	.	.	106	-17
Cc1ccc(C)c(NC(=O)CSc2ncc(S(=O)(=O)c3ccc(C)c(Cl)c3)c(=O)[nH]2)c1	94	86	101	.
O=C(CCCn1c(=O)[nH]c2ccsc2c1=O)NCCCN1CCN(c2cccc(Cl)c2)CC1	.	.	101	-27
CC(=NCC1CCCO1)C1=C(O)CC(C)(C)CC1=O (stereo unspecified)	93	112	96	4
Cc1ccc(Cc2cnc(NC(=O)C(c3ccccc3)c3ccccc3)s2)cc1	74	94	.	7
Cc1ccc(S(=O)(=O)N(C)C)cc1C(=O)OCC(=O)c1cc2c3c(c1)CC(=O)N3CCC2	116	89	.	-7
O=C(COc1ccc(F)cc1Cl)NCC1CN(Cc2ccccc2)CCO1 (stereo unspecified)	98	96	.	17
O=c1c2cc(Cl)ccc2nc2ccc(N3CCCC3)nn12	117	84	104	-20

# Five compounds out of the list, sorted by molar mass, rising:
structure	Sa growth inh	Sa growth inh second temp	GIV Gai3 FP	HCMV UL50-53 inh
Cn1nc(-c2ccc(Cl)cc2)cc1NC(=O)CC(C)(C)CC(=O)O	139	85	108	-16
COc1ccc(-c2nn3c(Cc4ccc(Cl)cc4)nnc3s2)cc1OC	94	79	105	-29
O=C(COc1ccc(F)cc1Cl)NCC1CN(Cc2ccccc2)CCO1 (stereo unspecified)	98	96	.	17
CCOc1ccc2nc(N3CCC(C(=O)Nc4ccc(Cl)cc4)CC3)sc2c1	.	.	106	-17
CC(C)c1ccc(NC(=O)Cn2c(-n3ncc(N4CCOCC4)c(Cl)c3=O)nc3ccccc32)cc1	101	95	.	-9

# The results go on:
structure	Sa growth inh	Sa growth inh second temp	GIV Gai3 FP	HCMV UL50-53 inh
COc1cc(C=C2C(=O)NC(=O)NC2=O)cc(Cl)c1OS(=O)(=O)c1ccccc1	.	.	104	60*
Cc1ccc2c(c1)nc(C(=O)O)n2CCO	91	91	99	.
COc1ccccc1CNC(=O)CCn1cnc2ccccc2c1=O	96	75	105	.
CC(C)C(=O)OCc1cc(=O)n2cc(Br)ccc2n1	74	90	.	-99
CCOC(=O)c1nc2cc(C)c(C)cc2nc1NCCC1=CCCCC1	.	.	127	-22
CCN(C(=O)C1Cc2ccccc2CN1S(=O)(=O)c1ccc(F)cc1)c1ccccc1 (stereo unspecified)	124	75	104	.
O=S(=O)(NCc1cccn1Cc1cccc(F)c1)c1ccc(Cl)cc1	.	.	110	3
Cc1ccc2nc(COc3ccccc3C#N)cc(=O)n2c1	78	93	.	-74
CS(=O)(=O)N1CCC(C(=O)NCC2CCCO2)CC1 (stereo unspecified)	87	83	99	-2
N#CC1=C2SCN(Cc3ccccc3)CN2C(=O)CC1c1cccs1 (stereo unspecified)	84	80	114	-14
COc1cc(C)nn1-c1ccc(Cl)cc1	102	103	.	14
Cc1cc(NC(=O)Cn2nc(C)n3cccc3c2=O)ccc1Br	115	88	103	-5
O=C(Cn1c(=O)n(-c2ccccc2)c(=O)c2c3c(sc21)CCCC3)Nc1ccc(F)cc1	91	88	105	-12
COc1ccccc1OCC(=O)NC(c1ccc(F)cc1)c1nnc(-c2ccccc2)o1 (stereo unspecified)	.	.	100	-14
CC(=O)OC(C(=O)NCc1ccc(F)cc1)c1ccccn1 (stereo unspecified)	108	82	103	-10
Cc1ccc(-c2nc(CS(=O)CC(=O)NC3CCCCC3)c(C)o2)cc1 (stereo unspecified)	119	95	105	0
O=C1c2ccccc2N2C(=O)CCC2(C(=O)Nc2ccc(N3CCCCC3)cc2)N1Cc1ccccc1 (stereo unspecified)	90	96	.	-26
COc1cccc(C2C3=C(CC(c4ccccc4O)CC3=O)Nc3onc(C)c32)c1 (stereo unspecified)	.	.	99	0
N#CC1=C(N)Oc2n[nH]c(-c3cccc([N+](=O)[O-])c3)c2C1c1cc(Br)ccc1F (stereo unspecified)	.	.	100	-22
C=CCN1C(=O)/C(=C/c2cc(C)n(-c3ccc(CC)cc3)c2C)SC1=S	118	95	175	.
CCSc1ncc2c(=O)n(CC(=O)N3CCCCC3C)cnc2n1 (stereo unspecified)	.	.	101	-1
NC(=O)CN1C(=O)C(O)(CC(=O)c2ccc(Cl)s2)c2ccccc21 (stereo unspecified)	94	96	107	-30
Cc1ncc(C(=O)Nc2ccccc2F)c(C)n1	.	.	108	2
Cn1c(=O)c2c(-c3ccc(Cl)cc3)c(NCCc3ccccc3)oc2n(C)c1=O	.	.	103	14
CN(Cc1ccccc1)C(=O)c1cc(-c2ccc(F)cc2)on1	111	86	104	0
CCC(=O)Nc1ccc2c(c1)nc(CCNC(=O)c1ccccc1)n2C	80	86	104	-11
O=C(NCCc1ccc(Cl)cc1)C1CCN(c2ncnc3c2nc2n3CCCCC2)CC1	95	93	103	.
CCn1c(=O)c(=O)n(CC)c2cc(N3CCCCC3)c(NC(=O)CN3CCOCC3)cc21	.	.	99	-22
Cc1ccc(NC(=O)CN2C(=O)CC(c3ccccc3)=Nc3ccccc32)cc1	.	.	98	-24
COc1ccccc1N1CCN(c2ncc3c(n2)CCN(Cc2ccccc2F)C3)CC1	86	89	101	.
O=P(O)(CN1CCOCC1)C1CCCCC1O (stereo unspecified)	103	109	100	-13
CC(=O)Nc1nc([N+](=O)[O-])c(SCC(=O)O)s1	.	.	101	-75
CCn1c(CCNC(=O)c2ccccc2OC)nc2ccccc21	106	99	101	-30
Cn1nc(-c2ccccc2F)c2cc(C(=O)NCc3ccccc3Cl)sc21	97	93	106	2
O=C(NCCCn1ccnc1)c1nn2c(C(F)(F)F)cc(-c3cccs3)nc2c1Br	.	.	99	-64
O=C(NC1CCCCCC1)N1CCOCC1	91	78	94	-27
COc1ccc(C2CC(=O)C3=C(C2)Nc2onc(C)c2C3c2ccc(Cl)cc2)cc1OC (stereo unspecified)	.	.	103	-19
CCOc1ccc(CCNC(=O)c2cc(=O)[nH]c3ccc(S(=O)(=O)N4CCCCC4)cc23)cc1OCC	131	97	109	.
CC(C(=O)O)N1C(=O)NC2NC(=O)NC21 (stereo unspecified)	122	103	99	-18
CC1Cc2cc(OCC(=O)O)ccc2C1=O (stereo unspecified)	87	82	.	-10
CCN(CC)c1nn2c(=O)c(C(=O)NCc3ccc(OC)cc3OC)cnc2s1	94	88	102	.
O=C(CCn1ccc2cc(S(=O)(=O)N3CCCC3)ccc21)NCc1ccccc1F	93	88	100	.
Cc1nnc(SCC(=O)n2c3c(c4c2CCCC4)CCCC3)n1Cc1ccccc1	121	93	108	3
CCc1nn2c(=O)c(S(=O)(=O)Nc3ccc(C)cc3C)c(C)nc2s1	104	85	102	-8
CC1=CC(=O)N(c2ccc(C)cc2)C1c1ccc(Cl)cc1 (stereo unspecified)	102	86	106	20
Cc1ccc(-n2ncc3c(=O)n(Cc4ccccc4C)cnc32)cc1C	97	89	107	-1
Fc1cccc(CNCC2CCCO2)c1 (stereo unspecified)	89	98	.	9
COCCNC(=O)c1sc(COc2cccc(C)c2)nc1C	.	.	102	-22
CC1Cn2c(nnc2C23CC4CC(CC(C4)C2)C3)S1 (stereo unspecified)	119	105	99	-6
CCCn1c(=N)c(C(N)=O)cc2c(=O)n3cc(C)ccc3nc21	82	42	115	-76
COc1ccc(NC(=O)c2ccco2)c(NC(=O)c2ccc(I)cc2)c1	102	69	105	-12
Cn1c(SCC(=O)NCc2ccccc2Cl)nc2c(-c3ccccc3)csc2c1=O	.	.	100	1
CC(=O)N1CCCC1c1nc2ccccc2n1Cc1ccc(F)cc1 (stereo unspecified)	103	86	99	-20
O=C(O)CCP(=O)(O)CN1CCCCC1	99	94	106	8
Cc1ccc(-c2c(Nc3cccc(F)c3)c(=O)c2=O)cc1	.	.	106	-16
COC(=O)c1cnn2c1NCN(Cc1cccc(OC)c1)C2	103	80	106	-54
CN(CC(=O)NCCc1ccccc1)c1nnc(N2CCCC2=O)s1	84	90	103	-26
COc1ccc(NC(C)=O)cc1NC(=O)C(NC(=O)c1cc(OC)c(OC)c(OC)c1)C(C)C (stereo unspecified)	100	88	.	-41
C1=CC2C(C1)C1CC2C2N=NN(c3ccccc3)C12 (stereo unspecified)	95	100	103	-10
C/C(=N\N=C(N)N)c1ccc(C)cc1	67	21	109	8

# Reprinted from above (4 entries):
structure	Sa growth inh	Sa growth inh second temp	GIV Gai3 FP	HCMV UL50-53 inh
CN(CC(=O)NCCc1ccccc1)c1nnc(N2CCCC2=O)s1	84	90	103	-26
COc1ccc(NC(C)=O)cc1NC(=O)C(NC(=O)c1cc(OC)c(OC)c(OC)c1)C(C)C (stereo unspecified)	100	88	.	-41
C1=CC2C(C1)C1CC2C2N=NN(c3ccccc3)C12 (stereo unspecified)	95	100	103	-10
C/C(=N\N=C(N)N)c1ccc(C)cc1	67	21	109	8

# Next part
structure	Sa growth inh	Sa growth inh second temp	GIV Gai3 FP	HCMV UL50-53 inh
CC1(C)CC(=O)C2=C(C1)C(c1cccnc1)c1c([nH]c(=O)[nH]c1=O)N2 (stereo unspecified)	92	98	99	15
Cc1occc1-c1nnc(SCC(=O)N(C)C2CCCc3ccccc32)n1C (stereo unspecified)	87	94	.	-31
O=C(CCn1c(=S)oc2ccccc21)Nc1cccc(O)c1	98	93	101	.
Cc1ccc(C(=O)NC(=S)N2CCNC(=O)C2)cc1I	109	106	104	9
Cc1c(C(=O)OCc2ccccc2)c2cc(NS(=O)(=O)N(C)C)ccc2n1S(=O)(=O)N(C)C	.	.	102	-32
COc1ccc2[nH]c(C(=O)N3CCCN(Cc4ccccc4)CC3)cc2c1	104	97	109	9
O=C(COc1cccc2c1CCN(Cc1ccccc1)C2=O)N1CCCCCC1	104	93	98	4
O=C(O)c1cc(N2CCN(c3ccccc3F)CC2)ccc1NC(=O)C1CCC1	.	.	98	-11
Cc1ccccc1C1C2=C(CCCC2=O)Nc2c1c(=O)[nH]c(=O)n2-c1ccccc1 (stereo unspecified)	93	104	120	22
O=C(NCc1ccc(C(F)(F)F)cc1)c1ccc(F)cc1	98	90	102	-14
COC(=O)C1=C(c2ccccc2)c2cc(Cl)ccc2S(=O)(=O)N1CC(=O)Nc1ccccc1Cl	.	.	102	-12
CCCn1nc(C(=O)N(C)Cc2ccc(OC)cc2OC)c2ccccc2c1=O	119	103	.	-18
O=C(c1cc2ccccc2oc1=O)N1CCN(Cc2ccc3c(c2)OCO3)CC1	96	89	102	-21
COc1ccc(C2CC(=O)C(C=NCCN3CCNCC3)=C(O)C2)cc1 (stereo unspecified)	107	102	100	9
O=C(NC1CC1)c1cc2c(=O)[nH]c3ccccc3c2s1	99	91	96	-9
O=C(NCc1cccc(C(F)(F)F)c1)c1ccccn1	96	97	.	-2
O=C(Nc1nnc(S(=O)(=O)N2CCCCCC2)s1)c1ccccc1Br	120	36	100	-9
COc1ccccc1/C=C1/Sc2ccc(C(=O)N3CCN(c4ncccn4)CC3)cc2N(C)C1=O	111	82	106	.
CC(C)C(=O)Nc1ccc(-c2nc3cc(C(C)C)ccc3o2)cc1	106	79	97	-20
CSc1cccc(NC(=S)NCc2cccn2C)c1	112	84	100	.
O=c1c2cnn(-c3ccc(F)cc3)c2ncn1Cc1cccc(Cl)c1	104	91	106	-19
O=C(O)c1ccc(N2CCOCC2)c(NS(=O)(=O)c2ccc(Br)cc2)c1	.	.	99	-18
Cc1nn2c(N(C)C)cc(C(C)(C)C)nc2c1-c1ccc(F)cc1	.	.	102	5
O=C(c1ccccc1)n1nccc1-c1cc(-c2ccccc2)no1	98	97	98	-1
COc1ccc(/C(COc2ccccc2O)=N\O)cc1	94	88	.	-21
CNC(=O)NC(=O)CN1CCCc2cc(C)ccc21	84	86	.	-29
CCCn1c(SCC(N)=O)nnc1C(C)C	108	107	100	-13
CC1=NN(C(=S)c2ccc(C)cc2)C(C)(O)C1CC(C)C (stereo unspecified)	94	88	.	0

# High-throughput results: PubChem, ICCB-Longwood Screening Facility, Harvard Medical School
